Screens (PubChem)
CtBP-E1A blk: qHTS Assay for Inhibitors of the CtBP/E1A Interaction; activity change, % (concentration not given with the values); AlphaScreen GST-E1A/His-CtBP binding, 1536-well; active compounds read low; control for the full effect not named in the record; AID 651724, 2012; CtBP / adenovirus E1A interaction (AlphaScreen); actives 0.49% (n = 340,000); in the data active means activity change below about -65%; inconclusive means about -30% to -65%; inactive means above about -30%; also: % is scaled to controls: 0 for no effect and ±100 for the full control effect
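Homogeneous bead-based format: GST-tagged E1A captured on glutathione donor beads, His-tagged CtBP on nickel acceptor beads; compounds precede bead addition by 2 h at 37 °C.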
D2 ag: Beta-Arrestin HTS for Positive Allosteric Modulators of the Human D2 Dopamine Receptor: Agonists; D(2) dopamine receptor (Homo sapiens), P14416; activation, % (test concentration not listed); actives 0.084% (n = 360,000); DiscoveRx PathHunter D2 beta-arrestin, luminescence, 90 min; 100% = 57 uM dopamine signal; in the data active = activation above about 40%; inconclusive = about 15% to 40%; inactive = below about 15%; also: compound concentration not given in the record; the text of the record calls up to 30% inactive
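Agonist mode: compounds alone added to overnight-plated D2 PathHunter cells for 90 min at 37 C, with 57 uM final dopamine (EC100) defining full response. Beta-arrestin recruitment detected by chemiluminescent reagent, read after 1 h at ambient temperature.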
D2 PAM: Beta-Arrestin HTS for Positive Allosteric Modulators of the Human D2 Dopamine Receptor: Potentiators; DiscoveRx D2 beta-arrestin cells, luminescence, 90 min; 100% = 57 uM dopamine signal; D(2) dopamine receptor (Homo sapiens), P14416; AID 624464, 2012; potentiation, % (concentration not given with the values); actives 0.23% (n = 360,000); active = potentiation of 50% or more; inconclusive = 30% to 50%; inactive = 30% or less;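 also: compound concentration not given in the record; tested on top of an EC20 dose of dopamine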
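PathHunter beta-arrestin assay in DiscoveRx D2 cells. Compounds were added with an EC20 of dopamine (50 nM final) for 90 min at 37 deg C. Luminescence was read 1 h after detection reagent, with 57 uM dopamine as the EC100 control.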
Six1-Eya2 inh: qHTS Assay for Inhibitors of the Six1/Eya2 Interaction; Homeobox protein SIX1 (Homo sapiens) + Protein phosphatase EYA2 (Homo sapiens), …; AlphaScreen GST-Six1/His-Eya2 binding, biochemical; active compounds read low; control for the full effect not named in the record; activity change, % (concentration not given with the values); actives 0.56% (n = 360,000); in the data active = activity change below about -65%; inconclusive = about -30% to -65%; inactive = above about -30%; also: % is scaled to controls: 0 for no effect and ±100 for the full control effect
Target sequence (O00167 whole entry, looked up): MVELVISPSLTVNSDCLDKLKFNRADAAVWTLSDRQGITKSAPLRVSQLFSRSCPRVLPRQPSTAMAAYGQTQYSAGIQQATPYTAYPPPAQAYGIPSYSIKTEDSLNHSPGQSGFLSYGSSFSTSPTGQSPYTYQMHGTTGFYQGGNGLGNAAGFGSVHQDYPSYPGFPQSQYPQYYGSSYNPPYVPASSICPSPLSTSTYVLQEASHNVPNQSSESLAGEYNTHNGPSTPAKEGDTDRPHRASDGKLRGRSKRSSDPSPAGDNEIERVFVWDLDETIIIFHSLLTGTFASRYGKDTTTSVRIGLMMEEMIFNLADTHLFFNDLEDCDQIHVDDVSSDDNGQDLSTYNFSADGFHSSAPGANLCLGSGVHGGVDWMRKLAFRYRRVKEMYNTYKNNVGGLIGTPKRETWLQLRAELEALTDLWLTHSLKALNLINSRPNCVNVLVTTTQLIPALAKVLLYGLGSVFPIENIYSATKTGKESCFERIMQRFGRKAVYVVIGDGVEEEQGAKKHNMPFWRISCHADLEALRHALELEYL
Target sequence (Q15475 whole entry, looked up): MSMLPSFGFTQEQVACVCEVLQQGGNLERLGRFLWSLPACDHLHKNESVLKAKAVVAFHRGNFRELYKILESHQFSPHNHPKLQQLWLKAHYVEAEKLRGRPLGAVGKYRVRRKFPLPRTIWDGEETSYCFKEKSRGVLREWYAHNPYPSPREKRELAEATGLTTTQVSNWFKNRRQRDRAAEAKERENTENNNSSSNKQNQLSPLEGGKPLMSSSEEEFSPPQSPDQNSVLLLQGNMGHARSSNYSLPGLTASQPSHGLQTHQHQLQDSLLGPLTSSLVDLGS
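Compounds are tested against tagged Six1 and Eya2 proteins bridged by glutathione donor and nickel acceptor beads; after a one-hour incubation at 37 °C without light, AlphaScreen emission is recorded.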
gsp antagonist: qHTS for Antagonists of gsp, the Etiologic Mutation Responsible for Fibrous Dysplasia/McCune-Albright Syndrome: qHTS; gsp-mutant cells, cAMP HTRF, 30 min; control for the full effect not named in the record; actives 0.4% (n = 340,000); Potency, µM (series often up to 76.9 µM), inactives show at the top dose activity change, negative = inhibition, hits mostly inhibitors; AID 624288, 2012; active = falling curve of any shape with a large fitted effect; inconclusive = falling curve, mostly with a smaller effect; inactive = flat or rising curve; cell line not stated here;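 also: intracellular cAMP measured with PDE inhibitor Ro 20-1724 present during compound exposure; potency is read from the fitted curve at half-maximal effect; % is scaled to controls: 0 for no effect and ±100 for the full control effect; nearly all actives have a fitted effect of over 65% in size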
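HTRF cAMP measurement after 30 min RT detection following 30 min, 37C compound treatment alongside […] (added as 300 uM solution) in G418-selected cells seeded at 2000/well and grown 16–24 h.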
gsp ag: qHTS for Agonist of gsp, the Etiologic Mutation Responsible for Fibrous Dysplasia/McCune-Albright Syndrome: qHTS. gsp mutant cells, cAMP HTRF, 30 min; control for the full effect not named in the record. Potency, µM (titrated, usually from 76.9 µM), for inactives: at the top dose activation (cAMP increase), actives largely listed as activators. actives 0.13% (n = 340,000). AID 624287, 2012; active = well fitted activation curve with a large enough effect; inconclusive = small, poorly fitted or top-dose-only effect, or another doubt; inactive = no such curve, though single readings can be large or run the other way; cell line not stated here;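 also: phosphodiesterase inhibitor Ro 20-1724 added with compounds to block cAMP breakdown; potency is read from the fitted curve at half-maximal effect; nearly all actives have a fitted effect of over 60% in size; about a fifth of the inactives were tested at one dose only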
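Cells in DMEM/10% FBS with G418 were pretreated with compounds in DMSO plus […] (300 uM stock) for 30 min at 37C. cAMP was measured by HTRF (cAMP-d2 plus anti-cAMP antibody-K) after 30 min at room temperature.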
An asterisk follows results filed as active; ? = inconclusive; / = no result given; [ ] = remark or other dose.

Values run as follows: CtBP-E1A blk	D2 PAM	gsp ag	D2 ag	Six1-Eya2 inh	gsp antagonist
> Cc1ccc(-c2nn(CC(N)=O)c(=O)c3ccccc23)cc1S(=O)(=O)N(C)C
  10	-11	-45%	-3.5	-1	-1%
> COCCCNCCOc1ccc(C)cc1[N+](=O)[O-]
  -1	-41	7%	-3.4	2	11%
> N#CC1=C2C=CC=CN2CC1=O
  -9	-7	4%	-0.9	-2	2%
> O=C(C[C@@H]1C/C=C\CC[C@H](Cc2ccc(F)cc2)C(=O)OC[C@@H]2CCCN2C1=O)N[C@H](CO)Cc1ccccc1
  -1	/	/	0.7	-14	-8%
> COc1ccc(N2CCN(CCCNC(=O)CCCn3c(=O)[nH]c4ccsc4c3=O)CC2)cc1
  -8	-30	-7%	1.4	-6	-3%
> O=C(c1ccccc1)N1CCN(Cc2c[nH]c3ccccc23)CC1
  -8	-33	-37%[inhibitor]	-2.4	-4	1%
> c1ccc2c(c1)nc(N1CCOCC1)c1c3ccccc3[nH]c21
  37	-6	-12%	-1.2	26	10%
> Cc1csc2nc(SCC(=O)Nc3ccccc3F)[nH]c(=O)c12
  1	-7	1%	-6.2	10	-29%
> Cc1nn(C)c(C)c1CN(C)C(=O)CCCC(=O)O
  12	-18	-20%	-5.4	9	6%
> CN1CC(=O)N(CC(=O)Nc2ccc(N3CCOCC3)cc2)C1=O
  /	-13	19%	-2.3	8	4%
> COc1ccccc1CNCc1ccc(OC)c(OC)c1OC
  7	-19	6%	0.9	-2	6%
> O=C(NC(=S)Nc1ccc2oc(=O)ccc2c1)c1cccc(F)c1
  -23	-24	22%	-4.5	-14	-2%
> Cc1ccc(CNC(=O)Cn2cnc3cc([N+](=O)[O-])ccc3c2=O)cc1
  -8	54*	21%	1.0	?	-12%
> COCCSc1nc(N)c(NC(=O)c2ccc(OC)cc2)c(=O)[nH]1
  /	-8	-26%	-2.7	5	-17%
> CC(=O)c1ccc(N(CC(=O)NC2CCCC2)C(=O)CNC(=O)c2cccs2)cc1
  4	-12	-6%	-3.5	-4	9%
> COc1ccc(/C=N/NC(N)=S)cc1OC(=O)c1ccccc1
  -15	-3	-19%	-2.5	-8	4%
> Cc1cc(NC(=O)CCc2ccc(-c3ccccc3)o2)no1
  -7	-19	-32%[inhibitor]	-5.8	-6	3%
> CCOC(=O)c1nn(-c2ccc(Cl)cc2)c2nc(Nc3ccccc3)cc(=O)n12
  -3	-23	-46%[inhibitor]	0.5	15	0%
> O=C(Cn1ccc2cc(S(=O)(=O)N3CCCC3)ccc21)NCc1ccco1
  -10	-2	-42%[inhibitor]	5.8	1	8%
> COc1cccc(CNC(=O)c2ccc(CS(=O)(=O)Cc3ccc(C)cc3)o2)c1
  5	-4	-71%[inhibitor]	-3.6	0	3%
> CC1(c2nnc(-c3ccc(F)cc3)o2)CC(c2ccccc2)=NO1 (configuration not stated)
  8	-9	/	-0.3	1	0%
> Cc1ccc(C)c(NC(=O)COC(=O)c2ccc3ccccc3n2)c1
  3	3	31%	-1.8	4	13%
> Cc1ccccc1NC(=O)c1ccc(N/N=C/c2ccccc2O)c([N+](=O)[O-])c1
  -7	-5	-4%	-8.2	8	6%
> NC(=O)CC(NC(=O)Cc1cccc2ccccc12)c1ccc(NCCN2CCCC2)c([N+](=O)[O-])c1 (configuration not stated)
  /	-2	11%	1.0	-7	11%
> CCCSc1nsc(NC(=O)c2cccnc2OCC)n1
  -5	-13	13%	1.0	22	5%
> O=C(O)CCCCCn1c(O)c(C=C2N=c3ccccc3=N2)sc1=S
  7	-4	3%	-1.0	-8	-13%
> COc1cc(C2Nn3c(nnc3-c3ccccc3OC)S2)ccc1O (configuration not stated)
  -1	-3	-11%	0.6	-6	-3%
> N#Cc1ccc(OCC(=O)Nc2cc(S(=O)(=O)N3CCOCC3)ccc2N2CCOCC2)cc1
  5	-4	-13%[15.4 µM]	1.2	17	2%
> Cc1ccc2ccccc2[n+]1CCCS(=O)(=O)[O-]
  -4	21	16%	3.8	1	1%
> CC(C)(C)c1cc(/C=N/NC(=O)C[n+]2ccccc2)cc(C(C)(C)C)c1O
  -12	-8	-8%	0.7	-4	12%

Brought forward from above: two compounds; new compounds follow.
Values run as follows: CtBP-E1A blk	D2 PAM	gsp ag	D2 ag	Six1-Eya2 inh	gsp antagonist
> Cc1ccc2ccccc2[n+]1CCCS(=O)(=O)[O-]
  -4	21	16%	3.8	1	1%
> CC(C)(C)c1cc(/C=N/NC(=O)C[n+]2ccccc2)cc(C(C)(C)C)c1O
  -12	-8	-8%	0.7	-4	12%
> CC1(c2ccc(Cl)cc2Cl)NC(=O)N(CC(=O)NCCC2=CCCCC2)C1=O (configuration not stated)
  0	-11	26%	-2.0	-4	/
> CC(OC(=O)CCN=C1NS(=O)(=O)c2ccccc21)C(=O)c1ccccc1 (configuration not stated)
  7	-1	?	-6.3	2	-1%
> N#Cc1ccccc1Sc1ccccc1C(=O)Nc1ccc2ccccc2c1
  /	-5	2%	-7.4	1	-8%
> CCCC(=O)Nc1c2c(nn1-c1ccc(F)cc1)CS(=O)(=O)C2
  -4	3	?	5.1	4	7%
> Cc1cccc(C2(c3cccc(C)c3)OC(=O)c3ccccc32)c1
  9	-16	-25%	-3.3	3	?
> COc1cc(CCC(=O)N2CCN(S(=O)(=O)c3ccc(C)cc3)CC2)cc(OC)c1OC
  -11	-16	-5%[15.4 µM]	1.4	19	2%
> Cc1nc(SCC(=O)O)c(C#N)c(C)c1CC(=O)c1ccccc1
  -7	5	-35%[inhibitor]	0.8	0	-6%
> CC(=O)NS(=O)(=O)c1ccc(NS(=O)(=O)c2ccccc2[N+](=O)[O-])cc1
  3	-1	11%[15.4 µM]	-4.6	-3	8%
> CCOC(=O)Cc1csc(NC(=O)c2csc3c2CCCC3)n1
  1	0	-21%	0.8	-1	-19%
> O=C(c1ccco1)N1CCN(c2ncnc3c2oc2ccccc23)CC1
  -12	-5	18%	1.2	-9	?
> O=C(CN1CCOCC1)Nc1cccc(Cl)c1Cl
  1	-3	-7%	-3.5	-3	4%
> CC(=O)c1ccc(N2CCN(c3ccc4cc(S(=O)(=O)N5CCC(C)CC5)ccc4n3)CC2)cc1
  11	1	?	-2.8	6	22%
> COc1ccccc1Nc1ncnc2c1oc1ccccc12
  8	-12	12%	-1.9	-1	-16%
> CCN(CC(=O)Nc1ccccc1C(F)(F)F)C(=O)C1CSC2(C)CCC(=O)N12 (configuration not stated)
  2	-68	31%[15.4 µM]	-0.6	7	10%
> O=[N+]([O-])c1ccc(Nc2nc(NCCO)nc(N3CCCC3)n2)cc1
  -19	-2	-2%	1.8	-16	-17%
> COC(=O)Nc1nn(-c2ccc(Cl)cc2)c(=O)c(C#N)c1C
  -21	-1	33%	-1.9	4	1%
> COc1ccc(NC(=O)C(C)N(c2ccc(C)cc2)S(C)(=O)=O)cc1 (configuration not stated)
  6	-3	-12%	-1.5	1	9%
> COC(=O)c1ccc(NC(=O)c2ccc[n+]([O-])c2)cc1
  -2	4	-5%[15.4 µM]	-4.5	1	6%
> CC1(c2ccc(OC(F)F)cc2)NC(=O)N(CC(=O)c2ccc3c(c2)OCO3)C1=O (configuration not stated)
  -1	-67	15%[15.4 µM]	1.2	-1	0%
> COC(=O)Cn1c(=NC(=O)c2cc(OC)cc(OC)c2)sc2cc(OC)ccc21
  11	-9	3%	0.1	13	-14%
> COc1cc2nc(CN3CCN(S(=O)(=O)c4c(F)cccc4F)CC3)[nH]c(=O)c2cc1OC
  -14	-4	-7%	-3.5	-20	-23%
> Cc1ccccc1Nc1nc(N)nc(CN2CCN(C(=O)c3ccccc3)CC2)n1
  7	-12	-27%	-5.3	-7	5%
> Nc1ncnc2c1ncn2C1OC(CO)C(O)C1O (configuration not stated)
  /	8	2%	-4.1	6	10%
> Fc1ccc(-n2c(Cn3nnc4ccccc43)n[nH]c2=S)cc1
  -2	-4	6%	-7.5	6	1%
> Fc1ccccc1CSc1nncn1NC/C=C/c1ccccc1
  0	11	22%	1.3	0	0%
> Cc1ccc(S(=O)(=O)N[C@H](C(=O)OCC(=O)NC(=O)Nc2ccc3c(c2)OCCO3)C(C)C)cc1
  -3	0	12%	1.6	-3	-9%
> Cc1nnc(SCc2cccc(Oc3ccccc3)c2)n1N
  8	-6	-45%	1.7	4	-2%
> CCN(Cc1ccccc1)S(=O)(=O)c1ccc(C(=O)N(CCCN(C)C)c2nc3cc4c(cc3s2)OCO4)cc1
  -27	-8	-15%	-3.8	-26	-12%
> O=c1[nH]c2cccnc2c2ccsc12
  -8	-20	8%[15.4 µM]	-5.7	-16	/
> O=C(Cc1c[nH]c2ccccc12)NCc1cccs1
  -1	11	-39%[inhibitor]	0.9	-1	15%
> COc1cccc(C(O)c2ncc(-c3ccc(Cl)cc3)[nH]2)c1 (configuration not stated)
  ?	-14	/	-2.9	-14	/
> O=C(CCC(=O)NC1CCN(Cc2ccccc2)CC1)NCc1ccco1
  -1	-16	-3%	-4.7	-2	5%
> O=C(O)c1cc(O)ccc1O
  31	0	/	0.2	0	3%
> O=c1c2ccccc2nc(/C=C/c2cccnc2)n1Cc1ccccc1
  1	-7	-5%	-4.5	-71*	-14%
> CCOC(=O)CSc1nc(N)c(C#N)c(-c2ccc(OCC)cc2)c1C#N
  0	-5	16%	1.7	4	11%
> CCCCn1c(N)c(N(CC(C)C)C(=O)CCCc2nc3ccccc3c(=O)[nH]2)c(=O)[nH]c1=O
  -3	-11	18%	-5.7	4	9%
> Cc1ccc(CNC(=O)CSc2n[nH]c(N)n2)cc1
  4	-15	-1%	-2.3	0	13%
> O=C(COc1ccc2c(c1)CCC2)N1CCN(c2ccccc2F)CC1
  8	-2	-10%	-7.4	4	4%
> CCN(C(=O)Cc1c(C(=O)O)[nH]c2ccccc12)c1ccc(OC)cc1
  2	7	-5%	2.0	9	-10%
> O=C(CSc1cccc2cccnc12)N/N=C/c1ccc(O)cc1
  -9	-6	-36%[inhibitor]	-0.8	?	-11%
> O=C(OC1CCOC1=O)c1cc(-c2ccccc2)nc2ccccc12 (configuration not stated)
  4	6	?	1.1	0	-12%
> O=C(COc1ccc(S(=O)(=O)NC2CCCCC2)cc1)NCc1ccccn1
  -3	-2	-3%	-2.8	0	-4%
> COCCNC(=O)c1ccc(-n2c(SCc3cc(F)ccc3F)nc3ccccc3c2=O)cc1
  18	1	1%	0.3	11	2%
> Cc1ccnc2nc(C(=O)OCCOc3cccc(Br)c3)nn12
  -4	8	-3%	-2.6	-4	9%
